# Screens as filed in PubChem BioAssay.
# p53 HeLa: p53 stabilisation in HPV-positive human cells, imaging, p53-positive nuclei imaging, 24 h, 48 h (AID 1508601). p53-positive nuclei, normalised, % at 11 µM unless noted. p53-positive nuclei imaging, 48 h; active compounds read high; some inactives read as strong as hits. 5,700 compounds, 1% hits;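 active = mean of two plates above 50% at 24 h or at 48 h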;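 also: HPV-positive HeLa cells with a fluorescent p53 stability reporter; 0% = vehicle and 100% = proteasome inhibitor control; doses worked out from stocks diluted about 900-fold with the highest of each compound shown; many of its hits are not listed in these tables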
# p53 HeLa cells 24 h: second read-out of p53 HeLa, no call of its own (marks repeat the call); nuclei count, normalised, %; measured here: cell number at 24 h;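 100% = vehicle wells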
# p53 HeLa p53 24 h: further read-out of p53 HeLa, marked with its call; p53-positive nuclei, normalised, %; measured here: p53 positive nuclei at 24 h;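 0% = vehicle and 100% = positive control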
# p53 HeLa cells 48 h: second read-out of p53 HeLa, no call of its own (marks repeat the call); nuclei count, normalised, %; measured here: cell number at 48 h;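 100% = vehicle wells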
# * marks the source's active call; other numbers are inactive results; [ ] = dose if it differs, or a comment.
# Preview (4 entries):
entry	compound	p53 HeLa	p53 HeLa cells 24 h
1	CC(C)(O)C1CC[C@@](C)([C@@H]2C(O)C[C@@]3(C)[C@@H]4CC(OC5OC(CO)C(O)C(O)C5O)[C@H]5C(C)(C)C(OC6OCC(O)C(O)C6O)CC[C@@]56C[C@]46CC[C@]23C)O1 (some centres undefined)	-0.3[3.7 µM]	114
2	CN1CCC(c2c(O)cc(O)c3c(=O)cc(-c4ccccc4Cl)oc23)C(O)C1 (centres undefined)	7.3	28
3	CCOc1cc(C(CS(C)(=O)=O)N2C(=O)c3cccc(NC(C)=O)c3C2=O)ccc1OC (centres undefined)	-0.2[3.7 µM]	110
4	CS(=O)(=O)N1CCN(Cc2cc3nc(-c4cccc5[nH]ncc45)nc(N4CCOCC4)c3s2)CC1	-0.3	64

entry	p53 HeLa p53 24 h	p53 HeLa cells 48 h
1	-0.3	115
2	0.4	18
3	-0.4	108
4	-0.1	66

# The listing, from the start:
entry	compound	p53 HeLa	p53 HeLa cells 24 h
1	CC(C)(O)C1CC[C@@](C)([C@@H]2C(O)C[C@@]3(C)[C@@H]4CC(OC5OC(CO)C(O)C(O)C5O)[C@H]5C(C)(C)C(OC6OCC(O)C(O)C6O)CC[C@@]56C[C@]46CC[C@]23C)O1 (some centres undefined)	-0.3[3.7 µM]	114
2	CN1CCC(c2c(O)cc(O)c3c(=O)cc(-c4ccccc4Cl)oc23)C(O)C1 (centres undefined)	7.3	28
3	CCOc1cc(C(CS(C)(=O)=O)N2C(=O)c3cccc(NC(C)=O)c3C2=O)ccc1OC (centres undefined)	-0.2[3.7 µM]	110
4	CS(=O)(=O)N1CCN(Cc2cc3nc(-c4cccc5[nH]ncc45)nc(N4CCOCC4)c3s2)CC1	-0.3	64
5	CC#C[C@]1(O)CC[C@@H]2[C@@H]3CCC4=CC(=O)CCC4=C3C(c3ccc(N(C)C)cc3)C[C@@]21C (some centres undefined)	-0.1	96
6	COc1cccc(-c2cc(=O)c3ccccc3o2)c1N	-0.6[3.7 µM]	114
7	CNc1nc(-c2ccc3c(N)n[nH]c3c2)cc(N2CC(C(=O)NC3CCCCC3)CCC2C)n1 (centres undefined)	0.0	113
8	Cc1ccccc1CN1C2=NCCN2C(=O)C2=C1CCN(Cc1ccccc1)C2	0.0[3.7 µM]	116
9	O=C(O)C(Cc1ccc2c(c1)oc1ccccc12)NCP(=O)(O)O (centres undefined)	-0.2	102
10	COc1ccc(Br)c(-c2nc3ccccc3c(=O)o2)c1	3.1	43
11	Cc1nc(C#Cc2ccnc(Cl)c2)c(C)n1-c1ccc(OC(F)(F)F)cc1	-0.3[3.7 µM]	111
12	O=C(O)C=Cc1ccc(Cn2ccnc2)cc1	-0.2	108

entry	p53 HeLa p53 24 h	p53 HeLa cells 48 h
1	-0.3	115
2	0.4	18
3	-0.4	108
4	-0.1	66
5	-0.2	100
6	-0.3	103
7	-0.1	117
8	-0.3	108
9	-0.2	105
10	2.1	31
11	-0.5	106
12	-0.1	103

# Reprinted at random: two records from the list.
entry	compound	p53 HeLa	p53 HeLa cells 24 h
10	COc1ccc(Br)c(-c2nc3ccccc3c(=O)o2)c1	3.1	43
3	CCOc1cc(C(CS(C)(=O)=O)N2C(=O)c3cccc(NC(C)=O)c3C2=O)ccc1OC (centres undefined)	-0.2[3.7 µM]	110

entry	p53 HeLa p53 24 h	p53 HeLa cells 48 h
10	2.1	31
3	-0.4	108

# Whole records, quoted from the list:
# `CC(C)(O)C1CC[C@@](C)([C@@H]2C(O)C[C@@]3(C)[C@@H]4CC(OC5OC(CO)C(O)C(O)C5O)[C@H]5C(C)(C)C(OC6OCC(O)C(O)C6O)CC[C@@]56C[C@]46CC[C@]23C)O1` (some centres undefined) reads p53 HeLa: -0.3[3.7 µM]; p53 HeLa cells 24 h: 114; p53 HeLa p53 24 h: -0.3; p53 HeLa cells 48 h: 115
# `CNc1nc(-c2ccc3c(N)n[nH]c3c2)cc(N2CC(C(=O)NC3CCCCC3)CCC2C)n1` (centres undefined) reads p53 HeLa: 0.0; p53 HeLa cells 24 h: 113; p53 HeLa p53 24 h: -0.1; p53 HeLa cells 48 h: 117
# `CN1CCC(c2c(O)cc(O)c3c(=O)cc(-c4ccccc4Cl)oc23)C(O)C1` (centres undefined) reads p53 HeLa: 7.3; p53 HeLa cells 24 h: 28; p53 HeLa p53 24 h: 0.4; p53 HeLa cells 48 h: 18

# The listing continues.
entry	compound	p53 HeLa	p53 HeLa cells 24 h
13	O=C(NOCC(O)CO)c1cc(Br)c(F)c(F)c1Nc1ccc(I)cc1F (centres undefined)	-0.2[3.7 µM]	109
14	CCCCCCCCCCCCCCC(=O)NCCO	0.2	98
15	COC(=O)C1=COC(O)[C@@H]2C(CO)=CC[C@H]12 (some centres undefined)	-0.2[3.7 µM]	96
16	CC(C)(O)CCC(O)[C@](C)(O)C1CC[C@@]2(O)C3=CC(=O)[C@@H]4CC(O)C(O)C[C@]4(C)[C@@H]3CC[C@]12C (some centres undefined)	-0.2[3.7 µM]	113
17	CCC1OC(=O)CC(O)C(C)C(O[C@H]2OC(C)C(O[C@H]3C[C@@](C)(O)C(O)C(C)O3)C(N(C)C)C2O)C(CC=O)CC(C)C(=O)C=CC(C)=CC1COC1OC(C)C(O)C(OC)C1OC (some centres undefined)	0.0[3.7 µM]	116
18	C=CC(=O)Nc1cccc(Nc2nc(Nc3ccc(OCCOC)cc3)ncc2F)c1	0.3	55
19	S=C(NCCCc1cnc[nH]1)NCCCN(Cc1ccc(Cl)c(Cl)c1)c1ccc(Br)cn1	0.7	94
20	Nc1ccc(C(=O)Nc2cccc(-c3nc(N4CCOCC4)c4oc5ncccc5c4n3)c2)cn1	0.7	52
21	CCOC(=O)C(CCc1ccccc1)NC(C)C(=O)N1Cc2cc(OC)c(OC)cc2CC1C(=O)O (centres undefined)	-0.3[3.7 µM]	114
22	O=C(CCCCCCCn1cc(-c2cccnc2)nn1)Nc1ccccc1-c1ccccc1	0.6	92
23	CCCCCCOC(=O)NC(=N)c1ccc(NCc2nc3cc(C(=O)N(CCC(=O)OCC)c4ccccn4)ccc3n2C)cc1	0.0	106
24	COc1ccccc1S(=O)(=O)Nc1ccc2c(c1)CN(C)C(=O)N2	1.0	119

entry	p53 HeLa p53 24 h	p53 HeLa cells 48 h
13	-0.3	114
14	0.0	98
15	-0.3	98
16	-0.3	112
17	-0.3	109
18	0.4	46
19	0.1	44
20	1.2	39
21	-0.6	105
22	0.0	55
23	-0.1	103
24	4.8	127

# New compounds follow
entry	compound	p53 HeLa	p53 HeLa cells 24 h
25	CC1(C)CCC(C)(C)c2cc(NC(=O)c3ccc(C(=O)O)cc3)ccc21	0.0	92
26	Oc1ccc(OC2CCCCO2)cc1 (centres undefined)	-0.1[3.7 µM]	93
27	CN(C)CCC(c1ccc(Cl)cc1)c1ccccn1 (centres undefined)	0.1[3.7 µM]	108
28	C1CCc2nnc(C34CC5CC(CC(C5)C3)C4)n2CC1	-0.2	107
29	O=[N+]([O-])c1ccc(Nc2ccccc2-c2ccccc2)c2nonc12	0.2	115
30	O=c1cc(-c2ccccc2)oc2cc(O)cc(O)c12	0.0[3.7 µM]	110
31	COc1ccc(CC(NC(=O)C(C)NC(=O)CN2CCOCC2)C(=O)NC(Cc2ccccc2)C(=O)[C@]2(C)CO2)cc1 (some centres undefined)	106*[3.7 µM]	46*
32	C#CCOc1ccc2c(c1)c(-c1ccc(C(C)C)cc1)nc(=O)n2C(C)C	0.0	112
33	Cc1cccc2c1N(CC(=O)OC(C)C)C(=O)C2=O	0.2	108
34	O=C(NCc1ccc(Oc2ccccc2)cc1)c1nc(-c2cc(Br)c(O)c(Br)c2)no1	-0.1[3.7 µM]	100
35	COc1cc2nccc(Oc3ccc(NC(=O)Nc4ccc(F)cc4F)c(F)c3)c2cc1OC	-0.5[3.7 µM]	94
36	CN(C)Cc1c(C(=O)NCCOc2ccc(C(=O)NO)cc2)oc2ccccc12	75*[3.7 µM]	40*

entry	p53 HeLa p53 24 h	p53 HeLa cells 48 h
25	0.0	88
26	-0.3	98
27	-0.1	106
28	-0.1	114
29	0.1	111
30	-0.1	99
31	126*	39*
32	-0.2	101
33	0.1	108
34	-0.3	103
35	-0.3	97
36	61*	24*

# (listing goes on)
entry	compound	p53 HeLa	p53 HeLa cells 24 h
37	Cc1onc(-c2c(Cl)cccc2Cl)c1C(=O)NC1C(=O)N2C1SC(C)(C)C2C(=O)O (centres undefined)	-0.1[3.7 µM]	114
38	COc1ccc2cc(CCC(C)=O)ccc2c1	-0.1[3.7 µM]	111
39	NC(=O)C1CSSCCC(=O)NC(CCCCN=C(N)N)C(=O)NCC(=O)NC(CC(=O)O)C(=O)NC(Cc2c[nH]c3ccccc23)C(=O)N2CCCC2C(=O)N1 (centres undefined)	0.1	100
40	COc1cccc(OC)c1-c1cc(C(=O)NC2(C(=O)O)C3CC4CC(C3)CC2C4)nn1-c1ccc(C(=O)N(C)CCCN(C)C)cc1C(C)C (centres undefined)	-0.2	85
41	O=C(CCc1ccc(O)cc1)c1c(O)cc(O)cc1O	-0.2[3.7 µM]	108
42	OCc1ccc(-c2ccc(-c3ccc(CO)s3)o2)s1	0.9[3.7 µM]	63
43	Cc1c2oc3c(C)ccc(C(=O)NC4C(=O)NC(C(C)C)C(=O)N5CCCC5C(=O)N(C)CC(=O)N(C)C(C(C)C)C(=O)OC4C)c3nc-2c(C(=O)NC2C(=O)NC(C(C)C)C(=O)N3CCCC3C(=O)N(C)CC(=O)N(C)C(C(C)C)C(=O)OC2C)c(N)c1=O (centres undefined)	4.6	34
44	C[C@@](Cc1ccc(O)c(O)c1)(NN)C(=O)O	-0.1[3.7 µM]	114
45	CCN(CC)CCCCNc1ncc2c(n1)N(C)C(=O)N(c1c(Cl)c(OC)cc(OC)c1Cl)C2	0.1	96
46	O=C(NNS(=O)(=O)c1ccccc1C(F)(F)F)c1cc2cc(Cl)ccc2o1	0.1	116
47	CN1CCN(CC(=O)N2c3ccccc3C(=O)Nc3cccnc32)CC1	0.0	103
48	CC(C(=O)O)c1ccc(-c2ccccc2)c(F)c1 (centres undefined)	-0.1[3.7 µM]	114

entry	p53 HeLa p53 24 h	p53 HeLa cells 48 h
37	-0.2	109
38	-0.3	109
39	0.2	101
40	-0.2	90
41	-0.3	91
42	2.8	45
43	1.8	23
44	-0.2	109
45	0.1	100
46	-0.2	116
47	0.0	101
48	-0.2	113

# Additional results
entry	compound	p53 HeLa	p53 HeLa cells 24 h
49	NC1CCCN(c2c(C=C3SC(=O)NC3=O)cccc2-c2ccccc2)C1 (centres undefined)	0.1	100
50	NC(=O)c1ccc2nc(-c3ccc(Oc4ccc(Cl)cc4)cc3)[nH]c2c1	0.1	70
51	O=C(O)c1ccc(C=C2SC(=S)N(c3cccc(C(F)(F)F)c3)C2=O)cc1	-0.1[3.7 µM]	76
52	O=c1cc(-c2ccccc2)oc2cccc(O)c12	6.3	79
53	O=C1CCc2ccc(OCCCCN3CCN(c4cccc(Cl)c4Cl)CC3)cc2N1	0.1	66
54	Nc1ccccc1NC(=O)c1ccc(CNc2nccc(-c3cccnc3)n2)cc1	83*	50*
55	c1ccc2nc(-c3ccc4ccccc4n3)ccc2c1	0.1	71
56	COc1ccc(C2(O)CCC(N3CCC(NC(=O)CNC(=O)c4cccc(C(F)(F)F)c4)C3)CC2)cn1 (centres undefined)	0.3	111
57	NCC1CCC(C(=O)O)CC1 (centres undefined)	0.0	109
58	CCCC(NC(=O)C(C#N)=Cc1cccc(Br)n1)c1ccccc1 (centres undefined)	0.0[3.7 µM]	94
59	C[C@]12C[C@@]3(O)O[C@@H](O1)[C@]1(COC(=O)c4ccccc4)[C@H]3C[C@@]12OC1OC(CO)C(O)C(O)C1O (some centres undefined)	0.6[3.7 µM]	101
60	Nc1ncnc2c1ncn2C1OC(CO)C(O)C1O (centres undefined)	0.0[3.7 µM]	106

entry	p53 HeLa p53 24 h	p53 HeLa cells 48 h
49	0.0	109
50	0.0	80
51	-0.3	78
52	0.3	61
53	0.2	69
54	88*	29*
55	0.0	76
56	0.0	104
57	-0.2	105
58	0.1	90
59	-0.3	103
60	-0.3	112

# Remaining list, next part:
entry	compound	p53 HeLa	p53 HeLa cells 24 h
61	O=C1NC(=O)C(=Cc2cccc(C(F)(F)F)c2)S1	-0.2	104
62	Fc1ccc(-c2c3cccc(C(F)(F)F)c3nn2Cc2ccc(F)cc2Cl)cc1	0.0	109
63	O=C(OC1C[C@H]2CC[C@@H](C1)[N+]21CCCC1)C(O)(c1ccccc1)c1ccccc1 (some centres undefined)	0.1[3.7 µM]	110
64	Nc1c(CC(=O)O)cccc1C(=O)c1ccc(Br)cc1	-0.1	105
65	O=C1NC(=O)C(=Cc2ccc(-c3ccc(F)cc3)o2)S1	-0.1[3.7 µM]	108
66	COc1ccc(-c2c(C)nn3c(NCCN4CCOCC4)cc(C)nc23)cc1OC	-0.2	112
67	CCCN(CCc1cccs1)C1CCc2c(O)cccc2C1 (centres undefined)	0.6	93
68	Cc1[nH]c2ccccc2c1C1=C(NCCc2ccc(F)cc2)C(=O)N(C)C1=O	-0.2[3.7 µM]	113
69	CNC(=O)C(NC(=O)C(CC(C)C)C(O)C(=O)NO)C(C)(C)C (centres undefined)	0.0	111
70	CCN(CC)CCCC(C)Nc1nc(C)cc(Nc2ccc3nc(C)cc(N)c3c2)n1 (centres undefined)	-0.2	97
71	CN1CCCC1CCO[C@](C)(c1ccccc1)c1ccc(Cl)cc1 (some centres undefined)	-0.1[3.7 µM]	110

entry	p53 HeLa p53 24 h	p53 HeLa cells 48 h
61	0.0	106
62	0.0	97
63	0.0	101
64	-0.2	105
65	-0.3	101
66	-0.1	114
67	0.6	104
68	-0.3	111
69	-0.2	110
70	-0.1	100
71	-0.2	106

# These rows are one share of the data, so the mix of outcomes need not match the whole.
